Source: PubChem BioAssay
FGF22 binding: binders of human FGF22 protein, primary screen, FGF22 synaptogenesis inhibitor project, biophysical, thermal shift, single point; recombinant FGF22 thermal shift, SYPRO orange fluorescence; percent of sucrose octasulfate shift, DMSO zero; calls only at 9.99 µM; AID 651658, 2012; hit rate 1.5% among 340,000; Fibroblast growth factor 22 (Homo sapiens), Q9HCT0;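 active = melting point raised past a set limit in the mean and every replicate; three in four hits are not shown here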
Target sequence (Q9HCT0 whole entry, looked up): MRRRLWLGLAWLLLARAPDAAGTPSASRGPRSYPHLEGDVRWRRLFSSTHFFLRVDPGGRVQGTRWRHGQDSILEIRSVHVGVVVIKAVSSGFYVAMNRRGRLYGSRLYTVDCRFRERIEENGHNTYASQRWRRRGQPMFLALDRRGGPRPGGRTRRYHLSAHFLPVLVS
B2AR ag: beta2AR agonists driving receptor internalization, primary screen, cell-based, FAP fluorogen, flow cytometry; AID 504454, 2011; Beta-2 adrenergic receptor (Homo sapiens), P07550; hit rate 0.43% among 340,000; response, % (concentration not given with the values); Am2.2-beta2AR cells; reference of the scale not given here;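 active = response above a set limit, near 3 SD of response in nonfluorescent compounds, cut at about 42% in these data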;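 note: stock transfer was 100 nL into about 11 µL; a reference agonist was the positive control; negative values mostly stem from fluorescent compounds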
ALR inh: inhibitors of human ALR sulfhydryl oxidase, primary screen, biochemical, H2O2 detection, HRP-luminol luminescence, single point; FAD-linked sulfhydryl oxidase ALR (Homo sapiens), P55789; purified ALR, DTT oxidation; inhibition, % (concentration not given with the values); hit rate 3.8% among 290,000; AID 485317, 2010;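 active = mean and each replicate at 75% or more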;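 note: stock transfer was 7.5 nL into about 7.5 µL; 0% = neutral wells and 100% = wells with inactivated enzyme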
Target sequence (P55789 whole entry, looked up): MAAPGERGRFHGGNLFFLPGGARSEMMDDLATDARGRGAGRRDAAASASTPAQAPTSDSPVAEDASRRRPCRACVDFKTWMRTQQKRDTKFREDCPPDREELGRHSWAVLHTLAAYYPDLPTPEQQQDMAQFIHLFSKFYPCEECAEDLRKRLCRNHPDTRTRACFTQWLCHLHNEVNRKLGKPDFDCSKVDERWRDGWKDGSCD
UCH37 inh: inhibitors of human UCH37 deubiquitinase, primary screen, biochemical, Ub-AMC cleavage, fluorescence; hit rate 0.33% among 330,000; Ubiquitin carboxyl-terminal hydrolase isozyme L5 (Homo sapiens), Q9Y5K5; inhibition, % (test concentration not listed); purified proteasome/UCH37;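 active = mean of two replicates above 20%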;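 note: 0% = compound-free wells with enzyme and 100% = wells lacking proteasome; stock transfer was 100 nL into about 20 µL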
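Schedule: 30 min plus 25 min, room temperature / Material: human UCH37 within purified proteasomes / Technique: AMC fluorescence intensity at 355/460 nm / Buffer or medium: pH 7.4 Tris-HCl (50 mM) with ovalbumin, ATP-MgCl2, DTT / Controls: wells without proteasome as full block, compound-free enzyme plus substrate as uninhibited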
rRNA inh HTS: reduced GFP signal of wild-type E. coli, primary screen, bacterial rRNA inhibitor project, GFP/RFP fluorescence, OD600, single point; E. coli WT GFP vs humanized-ribosome RFP mutants, 24 h; stronger effect = lower value; DMSO median 0, no signal -100; AID 720706, 2013; hit rate 1.6% among 350,000; GFP signal change (wild-type ribosome), % (concentration not given with the values);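 active = significant combined selectivity score with lowered wild-type GFP, culture density cut under 30%, mutant RFP and density less affected; inactive = any of these conditions unmet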; note: one replicate is shown; some compounds called inactive have numbers as strong as hits
HNF4A DNA FP: change in binding of human HNF4A to DNA, primary screen, biochemical, fluorescence polarization, FITC-DNA; Hepatocyte nuclear factor 4-alpha (Homo sapiens), P41235; activity change, % at 10 µM; hit rate 0.3% among 360,000; 1 h; in the data active = activity change above about 30%, passing the limit was not always enough;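 note: controls were the assay level and a saturating level of protein; the project sought stronger binding though the title names inhibitors; some compounds called inactive have numbers as strong as hits; positive values seem to mean higher polarization but the record does not say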
Target sequence (P41235 whole entry, looked up): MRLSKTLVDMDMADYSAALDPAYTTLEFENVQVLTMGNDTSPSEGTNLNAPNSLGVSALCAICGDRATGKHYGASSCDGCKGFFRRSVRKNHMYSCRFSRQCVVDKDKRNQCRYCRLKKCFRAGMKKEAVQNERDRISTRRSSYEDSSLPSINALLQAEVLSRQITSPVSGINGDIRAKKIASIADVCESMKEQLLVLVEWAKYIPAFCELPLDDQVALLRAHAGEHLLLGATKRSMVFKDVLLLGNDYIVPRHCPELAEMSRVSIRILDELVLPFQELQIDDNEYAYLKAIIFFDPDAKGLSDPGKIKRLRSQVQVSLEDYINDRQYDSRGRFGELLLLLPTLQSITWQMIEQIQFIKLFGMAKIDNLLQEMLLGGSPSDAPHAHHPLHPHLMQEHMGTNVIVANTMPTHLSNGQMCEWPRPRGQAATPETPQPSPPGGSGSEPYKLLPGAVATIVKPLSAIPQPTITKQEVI
E coli growth: E. coli growth inhibition, primary screen, OD600. OD600 absorbance (test concentration not listed). AID 1053175, 2014. Escherichia coli growth, 23 h; stronger effect = lower value. hit rate 0.21% among 330,000;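 active = OD600 absorbance below the run mean of sample wells minus 3.6 SD, in any replicate, cut at about 0.56 in these data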;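 note: stock transfer was 300 nL into about 60 µL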
rRNA inh HTS OD600: recorded beside rRNA inh HTS, whose call it bears; OD600 change, %; measured here: OD600 growth;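 optical density of the mix in the first replicate; 0 = DMSO median and -100 = no signal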
rRNA inh HTS RFP: further read-out of rRNA inh HTS, marked with its call; RFP signal change, %; measured here: RFP humanized mutant strains;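 first replicate; 0 = DMSO median and -100 = no signal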
Active calls of the source: *; i = inactive; . = not tested or not shown; + = active, no number; & = joins results of further samples.

Molecule,FGF22 binding,B2AR ag,ALR inh,UCH37 inh,rRNA inh HTS,rRNA inh HTS OD600,rRNA inh HTS RFP,HNF4A DNA FP,E coli growth
CCC(CO)(C(=O)OC1C[N+]2(C)CCC1CC2)c1ccccc1 (centres undefined),i,2,5,3.9,20,10,4.3,3.7,0.71
CC/C(=N\N1CCCCCC1)c1c(O)n(-c2ccccc2C)c(=O)[nH]c1=O,.,-5,62,0.9,.,.,.,1.2,0.68
CCc1ccc(NC2=NCCCS2)cc1,i,-5,-2,3.0,4,-2,8.2,-2.6,0.67
C[N+](C)(C)CC1CCCC(C[N+](C)(C)C)C1=O (centres undefined),i,13,.,.,5,13,3.1,0.4,.
CCC(CO)Nc1ccc([N+](=O)[O-])c2cccnc12 (centres undefined),.,4,.,19,.,.,.,7.9,0.64
CCCn1c(C(=O)c2ccccc2OC)nc2ccccc21,.,-3,4,3.5,.,.,.,3.0,0.72
C1=C(c2c[nH]c3ccccc23)CCN(Cc2ccccc2)C1,i,-4,25,-1.0,-35,-32,6.8,3.2,0.65
COc1ccc(-c2cc(=NCCCCCC(=O)O)c3cc(C)ccc3o2)cc1,i,-8&-9,.,i,-3&-14,-29&-27,-8.7&-9.5,-3.3&-0.4,0.68&0.69
C=CCNC(=O)c1c(N)n(CCN2CCOCC2)c2nc3ccccc3nc12,.,-6,-2,-307,.,.,.,-1.2,0.71
C#C[C@]1(O)CCC2C3C(CC[C@@]21C)[C@@]1(C)CC[C@@H](O)CC1=C[C@H]3O (some centres undefined),i,0,-4,3.9,-1,-1,2.2,-2.9,0.68
O=c1c2ccccc2nc(-c2ccccc2)n1-c1ccccc1O,i,12,29,4.7,-11,-7,1.4,2.4,0.7
COC(=O)C1=C(c2ccc(OC)c(OC)c2)C[C@@H]2CC[C@H]1N2C(=O)NC1CC1,i,-4,1,4.7,.,.,.,-2.9,.
CCCCn1c(O)c(C(CC)=Nc2ccc(C(=O)O)cc2)c(=O)[nH]c1=O,.,4,-3,7.1,.,.,.,-3.0,0.67
Cn1cc(C(=O)NC2CC2)c2ccccc21,i,-4,-5,2.7,5,10,0.2,-0.7,0.7
COc1ccc2c(c1)[C@]13CCCCC1C(C2)N(C)CC3 (some centres undefined),i,6,0,0.4,16,6,-6.9,2.5,0.54&0.68
C=CCC1(Cc2ccsc2)C(=O)NC(=O)NC1=O,i,-10,.,.,5,15,1.0,-1.9,.
COc1cccc(-n2c(O)c(C=NCCN3CCNCC3)c(=O)[nH]c2=S)c1,i,-2,1,5.2,5,7,0.7,3.4,0.67
CC(=O)NC(=O)NC(C)Cc1ccccc1 (centres undefined),.,15,99*,1.2,.,.,.,4.3,0.69
CCOC(=O)C(c1c(O)c2ccccc2oc1=O)c1c(O)c2ccccc2oc1=O,+,.,.,.,-13,-28,-1.8,-2.1,.
Cc1ccc(C(=O)Nc2ccc(Cl)cc2C(=O)c2ccccc2)cc1,.,-3,0,0.8,.,.,.,-3.4,0.74
COC(=O)C1=C(c2ccccc2OCc2ccccc2)C[C@@H]2CC[C@H]1N2C(=O)NCCOc1ccccc1Cl,i,-1,-4,-63,9,1,-1.5,9.2,0.82
OC(CNCc1ccccc1)c1ccc(Cl)cc1 (centres undefined),i,-2,.,4.5,5,-4,2.1,-0.5,0.69
O=C(O)CC[N+](=O)[O-],i,0,1,3.5,1,10,2.7,3.6,0.69
N#CCCn1cc(C(=O)NCc2ccccc2)c(-c2ccccc2)n1,i,2,8,3.6,-8,0,-4.3,-2.4,0.73
CC(=O)O[C@H]1C(=O)[C@@]2(C)C([C@H](OC(=O)c3ccccc3)[C@]3(O)C[C@H](O)C(C)=C1C3(C)C)[C@]1(OC(C)=O)CO[C@@H]1C[C@H]2O (some centres undefined),i,-1,-14,1.1,.,.,.,-2.9,0.7

Further compounds follow.
Molecule,FGF22 binding,B2AR ag,ALR inh,UCH37 inh,rRNA inh HTS,rRNA inh HTS OD600,rRNA inh HTS RFP,HNF4A DNA FP,E coli growth
COc1ccc(OCC(=O)N2CCN(Cc3ccc4c(c3)OCO4)CC2)cc1,i,9,37,5.3,0,-2,-1.6,-1.6,0.7
CCc1ccc(CNCCc2c[nH]c3ccccc23)cc1,i,-6,-1,5.6,-11,-28,-4.5,3.1,0.64
CN1CCN(c2ccc(N)cc2Cl)CC1,i,6,90*,-0.9,6,10,2.7,35,0.65
O=C1C(c2ccccc2)=C(N2CC2)c2ccccc21,.,0,-15,4.0,.,.,.,2.5,0.75
Cc1nc2cc(-c3ccc(Cl)cc3)nn2c(C)c1CCC(=O)N1CCC2(CC1)OCCO2,.,6,.,-63,.,.,.,0.4,0.67
CC1(C)CC(n2[nH]c(=O)c3c2NC(=O)CSC3c2ccccc2)CCO1 (centres undefined),.,7,-1,4.4,.,.,.,0.1,0.77
CC1[C@H]2Cc3ccc(O)cc3[C@]1(C)CCN2CCc1ccccc1 (some centres undefined),i,i,.,4.5,5,-5,2.0,1.0,0.73
Cc1ccc(-n2c(O)c(C=NC3CCCCC3N)c(=O)[nH]c2=O)cc1C (centres undefined),.,-3,-19,2.3,.,.,.,-0.9,0.73
Fc1ccc(NC2=NCCS2)cc1Cl,.,-7,-8,5.5,.,.,.,-2.2,0.76
CCOP(=O)(OCC)C(NC(=O)c1ccc(C)cc1)C(Cl)(Cl)Cl (centres undefined),.,9,-1,1.1,.,.,.,1.1,0.69
O=C1NC(=O)N(Cc2ccco2)C(=O)/C1=C\c1cccn1CCOc1ccccc1,i,1,.,5.6,7,13,0.6,-9.1,0.66
CC(C)(C)n1nnnc1C(CCc1ccccc1)N1CCC(n2c(=O)[nH]c3ccccc32)CC1 (centres undefined),i,.,.,.,-2,-2,-3.4,1.0,.
CCOC(=O)C(NC(=O)CC)(Nc1ccc(C(O)(C(=O)OCC)C(F)(F)F)cc1C)C(F)(F)F (centres undefined),.,3,5,1.6,.,.,.,-5.7,0.68
CCC(=O)OC1(c2cccc(C)c2)CC(C)N(C)CC1C (centres undefined),.,3,-6,1.4,.,.,.,0.7,0.74
N/C(=N\[N+](=O)[O-])N1CCN(C(=O)c2ccccc2)CC1,i,.,-7,.,23,11,3.3,.,.
N#CC(C#N)=Cc1ccc(O)c(O)c1,i,6,98*,2.7,.,.,.,-4.1,0.67
CN1C(=O)C(c2ccc([N+](=O)[O-])cc2[N+](=O)[O-])C(=O)N(C)C1=O,i,1,-30,11,0,14,0.8,3.7,0.69
O=C(NCC1=C(c2cccc3ccccc23)C[C@@H]2CC[C@H]1N2Cc1ccco1)c1ccc([N+](=O)[O-])cc1,i,.,.,.,-8,-6,3.0,-2.6,.
CCN1CCC(O)(c2ccccc2)C(C(=O)c2ccccc2)C1 (centres undefined),.,4,35,1.9,.,.,.,3.2,0.67
O=P1(Nc2ccc(F)cc2)COc2ccccc2OC1,.,0,-8,1.6,.,.,.,-1.5,0.67
C[N+]12CCC(CC1)C(C(O)(c1ccccc1)c1cccs1)C2 (centres undefined),.,-5,-12,1.5,.,.,.,-2.5,0.74
Cc1cc(C(=O)CN2CCCC2)c(C)n1-c1ccc(F)cc1,i,9,0,0.6,5,0,7.7,0.8,0.72
COc1ccc(C2N(c3cc(C)on3)C(=O)C3CCCN32)cc1 (centres undefined),i,-2,.,-1.0,21,18,1.8,1.5,0.67
CCn1c(O)c(C=Nc2ccc(N3CCOCC3)cc2)c(=O)n(CC)c1=S,.,-293,64,6.9,.,.,.,6.2,0.69
Cc1ccc(S(=O)(=O)N2CCCCC2)cc1NC(=O)CN1CC=C(c2ccccc2)CC1,.,-2,-2,-1.8,.,.,.,0.6,0.66

A second format for some results above.
Each structure is followed by: FGF22 binding | B2AR ag | ALR inh | UCH37 inh | rRNA inh HTS | rRNA inh HTS OD600 | rRNA inh HTS RFP | HNF4A DNA FP | E coli growth
Cc1cc(C(=O)CN2CCCC2)c(C)n1-c1ccc(F)cc1
  i | 9 | 0 | 0.6 | 5 | 0 | 7.7 | 0.8 | 0.72
CC1(C)CC(n2[nH]c(=O)c3c2NC(=O)CSC3c2ccccc2)CCO1 (centres undefined)
  . | 7 | -1 | 4.4 | . | . | . | 0.1 | 0.77
CC1[C@H]2Cc3ccc(O)cc3[C@]1(C)CCN2CCc1ccccc1 (some centres undefined)
  i | i | . | 4.5 | 5 | -5 | 2.0 | 1.0 | 0.73
C[N+]12CCC(CC1)C(C(O)(c1ccccc1)c1cccs1)C2 (centres undefined)
  . | -5 | -12 | 1.5 | . | . | . | -2.5 | 0.74
CCc1ccc(CNCCc2c[nH]c3ccccc23)cc1
  i | -6 | -1 | 5.6 | -11 | -28 | -4.5 | 3.1 | 0.64
O=C1C(c2ccccc2)=C(N2CC2)c2ccccc21
  . | 0 | -15 | 4.0 | . | . | . | 2.5 | 0.75

Further entries.
Molecule,FGF22 binding,B2AR ag,ALR inh,UCH37 inh,rRNA inh HTS,rRNA inh HTS OD600,rRNA inh HTS RFP,HNF4A DNA FP,E coli growth
CCCCN1C(=O)NC(=O)C2(Cc3c(nc4c(C)cccn4c3=O)N3CCc4ccccc4C32)C1=O (centres undefined),.,-2,-6,-16,.,.,.,2.9,0.67
O=C(O)c1cccc(N=Nc2c(O)[nH]c(=O)[nH]c2=O)c1,.,-3,3,14,10,8,1.5,-0.2,0.71
Brc1ccc(Oc2cc(Br)c(Br)cc2Br)c(Br)c1,i,11,-2,-1.8,6,1,-0.9,-0.3,0.68
CCN(CC)CCCN=C(C)c1c(O)n(-c2ccccc2)c(=O)[nH]c1=O,.,4,-9,2.8,.,.,.,2.4,0.68
Nc1cc(Cl)cc(Cl)c1,i,-1,10,0.3,4,0,1.5,-0.2,0.67
CN1CCN(c2ncnc3ccc(Br)cc23)CC1,.,-16,1,5.5,.,.,.,-2.9,0.68
COC(=O)C1=C(c2cc3ccccc3o2)C[C@@H]2CC[C@H]1N2C(=O)NCCCOC(C)C,i,3,.,0.0,-15,-9,-17,0.2,.
CN(C)c1nc(N(C)C)nc(N(C#N)CCCl)n1,i,5,96*,2.9,20,18,-3.0,1.2,0.66
Cn1cccc1/C=C1\C(=O)NC(=O)N(CCC2=CCCCC2)C1=O,i,7,.,2.6,11,5,1.8,-0.7,0.68
CCN(CC)c1ccc(N=Cc2c(O)n(CCc3ccc(OC)c(OC)c3)c(=O)[nH]c2=O)cc1,.,11,.,-2.5,.,.,.,12,0.65
C=CCN1C[C@@H](C)N(C(c2ccc(C(=O)N(CC)CC)cc2)c2cccc(OC)c2)C[C@@H]1C (some centres undefined),i,21,-12,5.8,.,.,.,4.1,.
COc1cc(CN2CCCC(C(=O)c3sccc3C)C2)cc(OC)c1O (centres undefined),i,-7,5,-0.3,10,5,2.4,1.6,0.66
O=C(Cc1ccccc1)OCC(=O)N1CCN(S(=O)(=O)c2ccc(Cl)cc2)CC1,i,-12,-17,2.0,1,0,0.9,-0.2,0.56

This is a subset (hit frequency here may not be typical).
